# Bfl-1 A1 inh: inhibitors of the anti-apoptotic protein A1, read as caspase activation | MEF A1-2A-BIM cells, Caspase-Glo 3/7 luminescence, 3 h; percent of clofoctol response, vehicle zero | caspase activation, % (concentration not given with the values) | 0.066% of 330,000 active | AID 2462;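 active means over half of replicate activation scores above 10%, or exactly half above 10 with the replicate mean above 10; inconclusive means replicate mean below 10 yet half the replicates above 10; inactive means over half of replicates below 10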;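 further: wells of about 30 µL received 50 nL stock; many hits fall short of the cut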
# Vif A3G: HIV-1 Vif–A3G interaction blockers – biochemical, TR-FRET, GST-Vif 1-94, biotin-A3G peptide, dose response retest, primary screen (AID 1117319) | inhibition, %; hits with a dose series show IC50 in µM | 0.57% of 260,000 active | TR-FRET GST-Vif / biotin-A3G peptide binding; higher % means a stronger effect; test concentration not given here; strong numbers were not always called active;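 active means above the screen mean plus three standard deviations and confirmed in dose response; inconclusive means results disagree or hit not tested in dose response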;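 further: Vif residues 1-94 fused to GST binding biotinylated APOBEC3G peptide 110-148; 0% = full assay without inhibitor and 100% = GST in place of GST-Vif; retest series ran down from 100 µM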
# Beta2AR agonist: agonists of human beta-2 adrenergic receptor inducing internalization | P07550 | Am2.2-beta2AR cells, FAP receptor internalization, flow cytometry; reference of the scale not given here | response, % (no concentration beside the values) | 0.43% of 340,000 active;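 active means response above a set limit, near 3 SD of response in nonfluorescent compounds, cut at about 42% in these data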;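 further: stock transfer was 100 nL into about 11 µL; a reference agonist was the positive control; negative values mostly stem from fluorescent compounds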
# Target sequence (P07550 whole entry, looked up): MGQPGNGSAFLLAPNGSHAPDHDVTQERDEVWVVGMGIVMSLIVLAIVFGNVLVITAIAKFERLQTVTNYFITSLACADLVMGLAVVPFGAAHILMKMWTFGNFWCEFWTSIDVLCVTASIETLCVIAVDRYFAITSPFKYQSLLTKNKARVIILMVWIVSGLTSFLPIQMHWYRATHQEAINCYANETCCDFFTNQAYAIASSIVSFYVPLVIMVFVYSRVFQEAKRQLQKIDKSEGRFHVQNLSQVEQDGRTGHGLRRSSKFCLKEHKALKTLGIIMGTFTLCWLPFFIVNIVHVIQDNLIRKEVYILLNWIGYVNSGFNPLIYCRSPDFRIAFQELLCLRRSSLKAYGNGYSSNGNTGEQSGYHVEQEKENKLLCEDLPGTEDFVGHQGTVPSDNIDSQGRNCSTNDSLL
# LANA-H2A inh: blocks KSHV LANA binding to histone H2A/H2B; cell-free LANA-H2A/H2B peptide, fluorescence polarization; inhibition, % (test concentration not listed); 0.6% of 320,000 active; in the data active means inhibition mostly above about 10%, no sharp cut-off; inactive means mostly below about 6.7%;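 further: stock transfer was 7.5 nL into about 10 µL; 0% = median of vehicle wells and 100% = median of positive control wells; one replicate is shown; the record names a cut of 25% in any replicate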
# UCH37 inh: inhibitors of human deubiquitinating enzyme UCH37; purified proteasome/UCH37, Ub-AMC cleavage fluorescence; Q9Y5K5; inhibition, % (no concentration beside the values); 0.33% of 330,000 active; AID 588478;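 active means mean of two replicates above 20%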;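 further: 0% = compound-free wells with enzyme and 100% = wells lacking proteasome; stock transfer was 100 nL into about 20 µL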
# Target sequence (Q9Y5K5 whole entry, looked up): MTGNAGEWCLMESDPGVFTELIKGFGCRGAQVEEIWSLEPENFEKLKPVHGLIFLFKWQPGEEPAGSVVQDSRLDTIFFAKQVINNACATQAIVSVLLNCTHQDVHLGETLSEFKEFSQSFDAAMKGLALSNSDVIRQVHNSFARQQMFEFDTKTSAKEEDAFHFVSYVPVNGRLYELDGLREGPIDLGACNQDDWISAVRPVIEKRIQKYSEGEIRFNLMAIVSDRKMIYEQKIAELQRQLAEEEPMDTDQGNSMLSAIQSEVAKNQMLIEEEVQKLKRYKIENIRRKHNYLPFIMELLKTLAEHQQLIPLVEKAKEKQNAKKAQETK
#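 Material: Human UCH37 enzyme supplied as purified proteasome complex | Schedule: 30 min compound-proteasome preincubation then 25 min substrate reaction, room temperature | Detection: AMC fluorescence from Ub-AMC cleavage, excitation 355 nm, emission 460 nm | Benchmarks: Wells without proteasome as full block, compound-free enzyme plus substrate as uninhibited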
# HNF4A DNA FP: change in binding of human HNF4 alpha to DNA. AID 1224865. P41235. 0.3% of 360,000 active. HNF4a-FITC DNA binding, fluorescence polarization, 1 h. activity change, % at 10 µM; in the data active means activity change above about 30%, passing the limit was not always enough;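 further: controls were the assay level and a saturating level of protein; the project sought stronger binding though the title names inhibitors; some compounds called inactive have numbers as strong as hits; positive values seem to mean higher polarization but the record does not say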
# Ecoli growth: blocks Escherichia coli growth; 0.21% of 330,000 active; OD600 absorbance (concentration not given with the values); OD600, 23 h; active compounds read low;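 active means OD600 absorbance below the run mean of sample wells minus 3.6 SD, in any replicate, cut at about 0.56 in these data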;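 further: stock transfer was 300 nL into about 60 µL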
# An asterisk follows results filed as active; ? = inconclusive; nt = no result given.
SMILES,Bfl-1 A1 inh,Vif A3G,Beta2AR agonist,LANA-H2A inh,UCH37 inh,HNF4A DNA FP,Ecoli growth
COC(=O)c1ccc(Cl)c(NC(=O)CN2CCN(C)CC2)c1,nt,1%,-3,nt,nt,6.8,nt
COCCCNC(=O)c1ccc(S(=O)(=O)c2ccc(Cl)cc2)c(NC(C)=O)c1,0.3,1%,0,3.1,3.6,3.1,0.7
O=C(NCc1ccco1)c1ccc(-c2ccc(Cl)cc2)o1,-0.3,-1%,10,-6.2,0.6,0.1,0.64
NS(=O)(=O)c1ccc(CCNC(=O)c2ccccc2[N+](=O)[O-])cc1,0.6,nt,0,-1.8,7.3,-1.6,0.69
Cn1cc(C(=O)c2cccc(Cl)c2Cl)cc1C#N,0.3,-13%,1,-0.2,-0.3,-0.8,0.63
Cc1ccc(C)c(N2CC(C(=O)O)CC2=O)c1 (stereo unspecified),0.6,-3%,7,5.0,2.1,1.4,0.67
O=C(O)C(Cc1ccccc1)NC(=O)C(c1ccccc1)c1ccccc1 (stereo unspecified),-1.8,11%,0,2.2,5.2,4.7,0.66
O=C(Nc1ccc(F)cc1)C1CCCCC1,0.6,14%,1,4.0,-7.1,0.2,0.75
CCCOc1ccc(C(=O)N/N=C/c2ccc(-c3ccc(S(=O)(=O)Nc4ncccn4)cc3)o2)cc1,-0.2,5%,10,0.9,nt,-3.2,nt
CCc1ccc(S(=O)(=O)Nc2ccc(N3CCN(C)CC3)cc2)cc1,0.0,12%,4,1.2,3.1,2.2,0.66
CCOC(=O)c1ccc(NC(=O)CSc2nc(C)cc(=O)[nH]2)cc1,1.7,?,13,-1.5,2.8,-15,0.63
O=C1CCC(CCC(=O)N2CCCC(C(=O)c3ccc4c5c(cccc35)CC4)C2)=NN1 (stereo unspecified),0.2,65%,6,2.1,-26,1.2,0.72
COc1cc(/C=N/NC(=O)C(C)Nc2n[nH]c(=O)[nH]c2=O)cc(OC)c1O (stereo unspecified),-0.3,29%,1,nt,nt,3.1,nt
COC(=O)c1cc(OC)c(OC)cc1NC(=O)Nc1cccc(C(C)=O)c1,?,9%,-2,-2.9,1.6,3.1,0.68
N#Cc1ccc(C(=O)N(Cc2ccco2)c2c(N)n(Cc3ccccc3)c(=O)[nH]c2=O)cc1,nt,nt,-5,nt,-0.9,3.3,0.73
Cn1c(N2CCC(C(N)=O)CC2)nc2c1c(=O)n(Cc1cccc(Br)c1)c(=O)n2C,-0.9,-3%,8,2.3,1.7,7.7,0.73
Cc1ccc(CNC(=O)CCS(=O)(=O)c2ccc(Br)cc2)cc1,nt,nt,-3,nt,1.7,-46,0.7
COc1cc(CC(=O)OCC(=O)c2ccc[nH]2)cc(OC)c1OC,-0.7,nt,-3,-3.8,-2.1,8.9,0.71
Cc1ccc(C)c(OCC(=O)Nc2ccc(S(=O)(=O)Nc3onc(C)c3C)cc2)c1,0.0,nt,-1,5.8,-3.0,-0.1,0.68
COc1ccc(C2CC(c3ccc4ccccc4c3)=NN2C(=O)CNC2CCCCC2)cc1 (stereo unspecified),-0.8,nt,5,7.7,-6.9,5.4,0.62

# A different layout for ten compounds above:
Molecule | Bfl-1 A1 inh | Vif A3G | Beta2AR agonist | LANA-H2A inh | UCH37 inh | HNF4A DNA FP | Ecoli growth
CCOC(=O)c1ccc(NC(=O)CSc2nc(C)cc(=O)[nH]2)cc1 | 1.7 | ? | 13 | -1.5 | 2.8 | -15 | 0.63
O=C1CCC(CCC(=O)N2CCCC(C(=O)c3ccc4c5c(cccc35)CC4)C2)=NN1 (stereo unspecified) | 0.2 | 65% | 6 | 2.1 | -26 | 1.2 | 0.72
COc1cc(/C=N/NC(=O)C(C)Nc2n[nH]c(=O)[nH]c2=O)cc(OC)c1O (stereo unspecified) | -0.3 | 29% | 1 | nt | nt | 3.1 | nt
COC(=O)c1cc(OC)c(OC)cc1NC(=O)Nc1cccc(C(C)=O)c1 | ? | 9% | -2 | -2.9 | 1.6 | 3.1 | 0.68
N#Cc1ccc(C(=O)N(Cc2ccco2)c2c(N)n(Cc3ccccc3)c(=O)[nH]c2=O)cc1 | nt | nt | -5 | nt | -0.9 | 3.3 | 0.73
Cn1c(N2CCC(C(N)=O)CC2)nc2c1c(=O)n(Cc1cccc(Br)c1)c(=O)n2C | -0.9 | -3% | 8 | 2.3 | 1.7 | 7.7 | 0.73
Cc1ccc(CNC(=O)CCS(=O)(=O)c2ccc(Br)cc2)cc1 | nt | nt | -3 | nt | 1.7 | -46 | 0.7
COc1cc(CC(=O)OCC(=O)c2ccc[nH]2)cc(OC)c1OC | -0.7 | nt | -3 | -3.8 | -2.1 | 8.9 | 0.71
Cc1ccc(C)c(OCC(=O)Nc2ccc(S(=O)(=O)Nc3onc(C)c3C)cc2)c1 | 0.0 | nt | -1 | 5.8 | -3.0 | -0.1 | 0.68
COc1ccc(C2CC(c3ccc4ccccc4c3)=NN2C(=O)CNC2CCCCC2)cc1 (stereo unspecified) | -0.8 | nt | 5 | 7.7 | -6.9 | 5.4 | 0.62

# The results go on:
SMILES,Bfl-1 A1 inh,Vif A3G,Beta2AR agonist,LANA-H2A inh,UCH37 inh,HNF4A DNA FP,Ecoli growth
COc1ccc(NC(=O)Cc2nnc(SCC(=O)c3ccccc3)n2C)cc1,-0.2,nt,1,-1.7,0.6,7.2,0.66
C/C(=N\NC(=O)c1ccc(NS(=O)(=O)c2cccs2)cc1)c1ccc(O)cc1O,-0.4,nt,4,-3.3,nt,-4.2,nt
COc1ccc(S(=O)(=O)n2nc(C)c(S(=O)(=O)N3CCOCC3)c2C)cc1,-1.0,nt,-2,-1.7,0.7,4.8,0.66
COc1ccc(Cc2nnc(NC(=O)c3ccc(OC)c(OC)c3)s2)cc1OC,0.3,nt,0,4.6,2.3,3.4,0.69
COc1ccc(Cc2nc(-c3ccncc3)no2)cc1,-0.1,nt,-4,0.5,2.4,0.2,0.72
CC1SC(C)C(=O)N(CC(=O)NCc2ccc(F)cc2)C1=O (stereo unspecified),-0.2,nt,0,-1.7,1.2,3.7,0.73
Cc1ccc(S(=O)(=O)Nc2ccccc2C(=O)N2CCCCC2C)c(C)c1NS(C)(=O)=O (stereo unspecified),-0.7,nt,1,2.7,6.8,-1.8,0.66
O=C(Nc1ccccc1C(=O)O)c1cccc(N2C(=O)c3ccccc3C2=O)c1,0.4,7%,-10,-2.9,6.1,-1.4,0.63
Cc1ccc(S(=O)(=O)N(C)CC(=O)N2CCN(C(=O)c3ccco3)CC2)cc1,1.5,-3%,11,4.2,4.3,6.7,0.71
O=C(Nc1ccc2c(c1)COC2=O)c1ccc(Cl)c(Cl)c1,-0.8,nt,0,1.4,-3.1,-1.3,0.71
Cc1cc(C)c(NC(=O)C2=CCN(S(=O)(=O)c3ccc(F)cc3)CC2)c(C)c1,0.5,-1%,0,-2.4,4.0,4.4,0.71
CN(Cc1nccs1)C(=O)C1CCC(=O)N(CCc2ccc(Cl)cc2)C1 (stereo unspecified),-1.3,nt,-3,-1.6,4.9,2.2,0.69
Cc1cccc(NS(=O)(=O)c2cc([N+](=O)[O-])ccc2C)n1,0.2,-12%,3,0.0,2.6,0.4,0.71
Cc1ccccc1NC(=O)c1ccccc1,0.1,-2%,-2,2.8,5.4,-2.4,0.69
Cn1c(=N)n(CC(=O)c2cccs2)c2ccccc21,-1.9,4%,0,-2.8,3.8,1.0,0.64
Cc1ccc(N2C(=O)CC(C)(C)CC2=O)cc1Cl,0.1,nt,2,-3.8,2.1,-4.3,0.66
COc1ccc(CC(=O)Nc2ccc(-c3ccc4nnc(C)n4n3)cc2)cc1OC,1.0,-9%,2,2.4,-32,2.3,0.7
C/C(=N/N=C1\SCC(=O)N1c1ccccc1)c1ccc(C)cc1,0.2,nt,-12,-2.8,nt,0.3,nt
COCCCNC(=O)CSc1nc2cc3c(cc2c(=O)n1CCCC(=O)NCc1ccc(OC)cc1)OCO3,0.1,6%,-8,-0.1,3.3,-3.5,0.7
CCn1c(=O)c2c3c(sc2n(C)c1=O)CCC3,-0.1,19%,-6,4.6,4.5,-4.9,0.69
COC(=O)c1ccc(COc2cccc(C)c2C)cc1,-0.9,nt,9,-5.0,1.0,3.8,0.7
COc1ccccc1NCC(=O)N/N=C(\C)c1ccc(Br)s1,0.1,1%,10,3.0,nt,4.1,nt
CSCCC(NC(=O)COc1ccccc1)C(=O)N1CCCC(C)C1 (stereo unspecified),0.0,nt,-7,0.0,-1.5,-3.7,0.68
Cc1ccccc1CC(=O)NC1CCCc2ccccc21 (stereo unspecified),0.7,4%,-1,-1.0,5.4,0.4,0.64
Cc1sc(NC(=O)c2ccccc2)c(C(c2ccccn2)N2CCN(CCO)CC2)c1C (stereo unspecified),1.0,nt,3,0.2,3.5,-1.3,0.71
COc1ccc(C(=O)Nc2ccc3ccccc3n2)c(OC)c1OC,-11,nt,-10,-4.2,-1.0,1.7,0.72
COc1ccc(-c2nc3n(c(=O)c2C#N)CCS3)cc1,0.4,-59%,-10,-1.4,-6.4,0.8,0.68
CCc1nnc2c(N(C)C)nc3ccccc3n12,-0.4,nt,-2,-1.3,7.0,2.5,0.67
CCNc1nc(Oc2ccc(Cl)cc2Cl)cc(C(F)(F)F)n1,1.1,-1%,7,-4.1,2.6,-2.8,0.69
Cc1c(C)c2ccc(OC(C)C(=O)NCCN3CCOCC3)c(C)c2oc1=O (stereo unspecified),-0.6,-7%,1,-1.4,-69,-0.9,0.73
CCOC(=O)c1nn(C)c(=S)n(C)c1=O,nt,-2%,2,nt,4.8,3.7,0.68
NC(=O)c1ccc(Oc2ncc(C(F)(F)F)cc2Cl)cc1,0.4,-1%,-8,0.0,3.4,-1.5,0.67
COc1cccc(-c2nc3ccccc3c(=O)n2NC(=O)c2cccnc2Cl)c1,0.8,-2%,-2,6.9,0.8,-2.5,0.7
COc1ccc(N(CC(=O)Nc2ccc3c(c2)OCCO3)S(=O)(=O)c2c(C)nn(C)c2C)cc1,-0.8,3%,0,-2.1,2.5,2.1,0.67
Cc1cc(C(=O)OC(C)C(=O)Nc2cccc(Cl)c2)on1 (stereo unspecified),nt,-1%,-4,nt,0.3,3.4,0.71
CCCC(C(=O)NC1CCCC1)N(Cc1ccc(F)cc1)C(=O)c1snc(C(N)=O)c1N (stereo unspecified),1.2,nt,4,0.5,-35,-1.1,0.73
O=C(CSc1nc(C(F)(F)F)cc(=O)[nH]1)Nc1ccc2c(c1)OCCO2,0.7,-5%,-3,5.6,0.3,11,0.67
COc1ccc(N(C)S(=O)(=O)c2c(C)[nH]c(=O)[nH]c2=O)cc1,0.3,-1%,-5,-5.0,2.6,-3.2,0.7
CC1=N/C(=C\c2ccccc2Cl)C(=O)O1,-0.3,nt,-5,3.0,0.4,2.9,0.7
CCOCCn1c(CN2CCN(CC)CC2)nc2c1c(=O)n(C)c(=O)n2C,-0.1,nt,6,-0.3,-1.3,-2.9,0.8
N#CCCN(C(=O)COC(=O)CNS(=O)(=O)c1ccc2ccccc2c1)c1ccccc1,-0.3,8%,8,2.4,-0.7,-0.4,0.63
COc1cc(O)c(C(CC(=O)N2CCOCC2)c2cc(OC)c(OC)c(OC)c2)c(OC)c1 (stereo unspecified),nt,nt,-2,nt,0.7,-3.3,0.69
O=C(/C=C/c1ccccc1)Nc1cccc(C(=O)NCCCCc2ccccc2)c1,nt,-3%,-7,nt,nt,1.8,nt
CC1=NN(C(=O)c2cccc(Cn3nc(C)c([N+](=O)[O-])c3C)c2)C(O)(C(F)(F)F)C1 (stereo unspecified),-0.3,2%,-2,-3.4,0.1,1.5,0.78
COc1ccc2cc(/C(C)=N/NC(=O)C3CC3)ccc2c1,-1.0,1%,-22,-1.7,nt,3.5,nt
Cc1ccc(CCNC(=O)CN2C(=O)COc3ccc(S(=O)(=O)N4CCOCC4)cc32)cc1,-0.8,nt,-9,-3.3,0.5,0.1,0.68

# Screening data (PubChem)

# Rows are unselected; about 2.1% have a hit in one of these screens.
